GRIN3A LBD mod: modulates the human NR3A ligand-binding domain. NR3A LBD differential scanning fluorimetry, Tm shift; 0% = protein alone, 100% = glycine-bound protein. Tm shift relative to glycine control, % at 25 µM. 2.5% of 340,000 active. AID 1259313;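 active = melting temperature shift of at least 10% of the positive control shift, at one fixed dose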
HKDC1 inhibitor: inhibitors of human hexokinase HKDC1 | inhibition, % at 20 µM | 0.16% of 340,000 active | Q2TB90 | recombinant HKDC1, G6PDH/diaphorase resazurin coupled fluorescence;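 active = inhibition above about 35% when tested at 20 µM, limit read from the data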;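 note: plate controls were DMSO wells with enzyme for no effect and DMSO wells lacking enzyme for full effect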
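Material – in-house recombinant HK5 (HKDC1) enzyme · Quantity – HKDC1 at 5 µg/mL · Buffer or medium – pH 8.0 Tris buffer with 10 mM MgCl2 · Reagent – glucose with 1 mM ATP · Dosing – single 20 µM dose · Times – reaction time 90 min, room temperature, protected from light · Technique – resorufin fluorescence at 613 nm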
ATG4B inhibitor: inhibitors of human ATG4B cysteine protease; inhibition, % at 8.33 µM; ATG4B cleavage of LC3-PLA2, NBD-HPC fluorescence, 1 h; 0.51% of 340,000 active; Q9Y4P1; AID 504462; in the data active = inhibition above about 40%
Target sequence (Q9Y4P1 whole entry, looked up): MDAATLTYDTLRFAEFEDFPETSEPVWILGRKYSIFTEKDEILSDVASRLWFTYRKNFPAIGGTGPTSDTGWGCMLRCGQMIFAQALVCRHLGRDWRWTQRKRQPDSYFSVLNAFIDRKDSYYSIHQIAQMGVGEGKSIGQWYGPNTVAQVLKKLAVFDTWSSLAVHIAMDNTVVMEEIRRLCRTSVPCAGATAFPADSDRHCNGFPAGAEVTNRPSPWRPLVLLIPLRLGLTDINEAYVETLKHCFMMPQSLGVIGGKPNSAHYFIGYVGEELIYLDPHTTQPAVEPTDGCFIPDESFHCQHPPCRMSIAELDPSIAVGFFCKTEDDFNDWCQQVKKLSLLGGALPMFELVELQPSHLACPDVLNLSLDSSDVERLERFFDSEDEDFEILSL
SENP6 block: inhibitors of human SENP6 protease; Q9GZR1; Recombinant SENP6 catalytic domain, aminoluciferin luminescence; inhibition, % at 10 µM; 1.8% of 330,000 active;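 active = inhibition above about 50% at the single tested dose, limit read from the data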;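 note: plate controls were DMSO wells with enzyme for no effect and DMSO wells lacking enzyme for full effect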
SENP8 inh: inhibitors of human SENP8 protease | recombinant SENP8, Nedd8 substrate fluorescence | inhibition, % at 20 µM | AID 602440 | 0.64% of 360,000 active | Q96LD8; in the data active = inhibition mostly above about 40%, no sharp cut-off; inactive = mostly below about 27%
Target sequence (Q96LD8 whole entry, looked up): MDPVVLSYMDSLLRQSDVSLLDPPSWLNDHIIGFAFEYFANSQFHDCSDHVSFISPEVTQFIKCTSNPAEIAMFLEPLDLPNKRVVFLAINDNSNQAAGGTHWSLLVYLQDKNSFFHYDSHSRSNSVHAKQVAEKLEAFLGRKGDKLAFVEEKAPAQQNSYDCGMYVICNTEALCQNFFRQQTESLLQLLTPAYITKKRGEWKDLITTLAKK
PfG6PD inh: PfG6PD (Plasmodium falciparum) enzyme inhibition; inhibition, % at 20 µM; 0.78% of 350,000 active; PfGluPho enzyme, NADPH resazurin-diaphorase fluorescence;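 active = inhibition reaching at least a set limit at 20 µM in the primary screen, cut at about 59% in these data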;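 note: 0% = DMSO wells with substrate and 100% = DMSO wells lacking glucose-6-phosphate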
SENP7 inh: inhibitors of human SENP7 protease. inhibition, % at 5 µM. Q9BQF6. 1.5% of 330,000 active. AID 434973. recombinant SENP7, Z-RLRGG-aminoluciferin luminescence, 40 min;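 active = inhibition above about 50% at the single test dose, limit read from the data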;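 note: plate controls were DMSO with enzyme for no effect and no enzyme buffer wells for full effect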
* marks the source's active call; other numbers are inactive results. The list is partial; the hit share may differ from the screen's.

What do the screens show for `COc1cc2cc(-c3ccc(O)cc3O)nc(C)c2cc1OC`?
GRIN3A LBD mod: 29*; HKDC1 inhibitor: 3; ATG4B inhibitor: -7; SENP6 block: -14; SENP8 inh: 14; PfG6PD inh: 26; SENP7 inh: 2

Results for Cc1cc(C)nc(/N=C(\N)Nc2ccc(F)c([N+](=O)[O-])c2)n1 ?
GRIN3A LBD mod: -1; HKDC1 inhibitor: -5; ATG4B inhibitor: 6; SENP6 block: -14; SENP8 inh: 15; PfG6PD inh: -1; SENP7 inh: -3

What do the screens show for `O=C(NC1CCCC1)c1cc(Cl)ccc1[N+](=O)[O-]`?
GRIN3A LBD mod: 7; HKDC1 inhibitor: -8; ATG4B inhibitor: -7; SENP6 block: 10; SENP8 inh: 11; PfG6PD inh: -14; SENP7 inh: -2

Results for CCSc1nnc(NC(=O)CSc2nnc(Cc3cccn3C)n2-c2ccc(C)cc2)s1 ?
GRIN3A LBD mod: -1; HKDC1 inhibitor: -1; ATG4B inhibitor: 30; SENP6 block: -1; SENP8 inh: 3; PfG6PD inh: -40; SENP7 inh: -4

Results for CCCN(CCC)Cc1c(C(=O)N/N=C/c2ccoc2)nnn1-c1nonc1N ?
GRIN3A LBD mod: 5; HKDC1 inhibitor: -1; ATG4B inhibitor: -6; SENP6 block: 10; SENP8 inh: 6; PfG6PD inh: 5; SENP7 inh: -3

How did c1ccc(Oc2ccc(-c3ccn[nH]3)cc2)cc1 do in these assays?
GRIN3A LBD mod: -2; HKDC1 inhibitor: 1; ATG4B inhibitor: -5; SENP6 block: -16; SENP8 inh: 10; PfG6PD inh: 8; SENP7 inh: 1

What do the screens show for `Cc1cccc2c1-c1sc(C(=O)NCCCN3CCc4ccccc4C3)cc1CO2`?
GRIN3A LBD mod: -6; HKDC1 inhibitor: 7; ATG4B inhibitor: 0; SENP6 block: 20; SENP8 inh: -408; PfG6PD inh: 15; SENP7 inh: 0

Results for N#CC1=C(N)Oc2c(oc(CO)cc2=O)C12C(=O)Nc1ccc(Cl)cc12 (stereo not drawn) ?
GRIN3A LBD mod: -2; HKDC1 inhibitor: -2; ATG4B inhibitor: 1; SENP6 block: -10; SENP8 inh: 12; PfG6PD inh: -7; SENP7 inh: -7

How did Cc1ccc(C)c(N2CCN(C(=O)CCCN3C(=S)NC(C)(C)CC3C)CC2)c1 (stereo not drawn) do in these assays?
GRIN3A LBD mod: -5; HKDC1 inhibitor: -6; ATG4B inhibitor: -4; SENP6 block: 11; SENP8 inh: 13; PfG6PD inh: -4; SENP7 inh: 5

How did Cc1ccc(S(=O)(=O)Nc2nc(C)cc(NCCN)n2)cc1 do in these assays?
GRIN3A LBD mod: 0; HKDC1 inhibitor: -4; ATG4B inhibitor: 3; SENP6 block: -23; SENP8 inh: 14; PfG6PD inh: -13; SENP7 inh: 4

How did O=S(=O)(NC1CCCCC1NCc1ccco1)c1ccc(Cl)cc1 (stereo not drawn) do in these assays?
GRIN3A LBD mod: -1; HKDC1 inhibitor: -6; ATG4B inhibitor: 3; SENP6 block: -22; SENP8 inh: 14; PfG6PD inh: -9; SENP7 inh: 92*

What do the screens show for `Cc1ccc([N+](=O)[O-])cc1NC1CC(O)C(CO)O1` (stereo not drawn)?
GRIN3A LBD mod: -7; HKDC1 inhibitor: -11; ATG4B inhibitor: -3; SENP6 block: -22; SENP8 inh: 9; PfG6PD inh: -3; SENP7 inh: -3

Results for CC(=O)OCP(C)(=O)COC(C)=O ?
GRIN3A LBD mod: -1; HKDC1 inhibitor: -7; ATG4B inhibitor: 3; SENP6 block: -10; SENP8 inh: 17; PfG6PD inh: -7; SENP7 inh: 11

Results for CSc1nc(N2CCOCC2)c2c3c(sc2n1)CCC3 ?
GRIN3A LBD mod: 0; HKDC1 inhibitor: 6; ATG4B inhibitor: 49*; SENP6 block: -1; SENP8 inh: -6; PfG6PD inh: -3; SENP7 inh: -2

Results for COCCCNC(=O)CC(NS(=O)(=O)c1ccc(C)cc1)c1ccc(OC)cc1 (stereo not drawn) ?
GRIN3A LBD mod: -3; HKDC1 inhibitor: -11; ATG4B inhibitor: -8; SENP6 block: -26; SENP8 inh: 9; PfG6PD inh: 1; SENP7 inh: -4

Results for Cc1ccc(CNC(=O)CNC(=O)c2c(C)nn(C)c2Cl)cc1 ?
GRIN3A LBD mod: 0; HKDC1 inhibitor: -2; ATG4B inhibitor: -17; SENP6 block: -3; SENP8 inh: 12; PfG6PD inh: -14; SENP7 inh: -2

What do the screens show for `OCc1cnc(SCc2ccccc2)n1Cc1ccccc1`?
GRIN3A LBD mod: -4; HKDC1 inhibitor: -10; ATG4B inhibitor: 4; SENP6 block: -20; SENP8 inh: -1; PfG6PD inh: -9; SENP7 inh: 4

Five entries already listed, ordered by number of heavy atoms, falling.
How did O=S(=O)(NC1CCCCC1NCc1ccco1)c1ccc(Cl)cc1 (stereo not drawn) do in these assays?
GRIN3A LBD mod: -1; HKDC1 inhibitor: -6; ATG4B inhibitor: 3; SENP6 block: -22; SENP8 inh: 14; PfG6PD inh: -9; SENP7 inh: 92*

Results for Cc1ccc(CNC(=O)CNC(=O)c2c(C)nn(C)c2Cl)cc1 ?
GRIN3A LBD mod: 0; HKDC1 inhibitor: -2; ATG4B inhibitor: -17; SENP6 block: -3; SENP8 inh: 12; PfG6PD inh: -14; SENP7 inh: -2

How did Cc1ccc(S(=O)(=O)Nc2nc(C)cc(NCCN)n2)cc1 do in these assays?
GRIN3A LBD mod: 0; HKDC1 inhibitor: -4; ATG4B inhibitor: 3; SENP6 block: -23; SENP8 inh: 14; PfG6PD inh: -13; SENP7 inh: 4

Results for CSc1nc(N2CCOCC2)c2c3c(sc2n1)CCC3 ?
GRIN3A LBD mod: 0; HKDC1 inhibitor: 6; ATG4B inhibitor: 49*; SENP6 block: -1; SENP8 inh: -6; PfG6PD inh: -3; SENP7 inh: -2

Results for CC(=O)OCP(C)(=O)COC(C)=O ?
GRIN3A LBD mod: -1; HKDC1 inhibitor: -7; ATG4B inhibitor: 3; SENP6 block: -10; SENP8 inh: 17; PfG6PD inh: -7; SENP7 inh: 11

Assay outcomes (PubChem BioAssay)
